rRNA inh HTS – selective bacterial rRNA inhibition in E. coli. GFP signal change (wild-type ribosome), % (test concentration not listed). E. coli WT GFP vs humanized-ribosome RFP mutants, fluorescence, 24 h; hits give low values; DMSO median 0, no signal -100. 350,000 compounds, 1.6% hits. AID 720706;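 active = significant combined selectivity score with lowered wild-type GFP, culture density cut under 30%, mutant RFP and density less affected; inactive = any of these conditions unmet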; also: one replicate is shown; some compounds called inactive have numbers as strong as hits
FGF22 binding – FGF22 (human) thermal shift binding; Q9HCT0; recombinant FGF22 thermal shift, SYPRO orange fluorescence; percent of sucrose octasulfate shift, DMSO zero; calls only at 9.99 µM; 340,000 compounds, 1.5% hits; AID 651658;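 active = melting point raised past a set limit in the mean and every replicate; inconclusive = no clear call; three in four hits are not shown here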
Target sequence (Q9HCT0 whole entry, looked up): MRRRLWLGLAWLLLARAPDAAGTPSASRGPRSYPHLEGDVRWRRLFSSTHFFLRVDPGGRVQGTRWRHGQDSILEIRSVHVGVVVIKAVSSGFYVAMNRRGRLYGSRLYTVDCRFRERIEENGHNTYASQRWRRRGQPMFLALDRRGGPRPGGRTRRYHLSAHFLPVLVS
MLL AF4-AF9 inh – blocks AF4 peptide binding to human AF9 | AlphaScreen, biotin-AF4 peptide binding to FLAG-AF9 | inhibition, % at 10 µM | 350,000 compounds, 0.47% hits | AID 651704;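 active = every replicate reaching a set inhibition limit, whatever the replicate mean, cut at about 25% in these data; inconclusive = mean inhibition reaches that limit but some replicates miss it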;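 also: 0% = plate neutral control median and 100% = total signal loss; the record names both 10 and 1 µM as test concentration; the first replicate is given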
Target sequence (P42568 whole entry, looked up): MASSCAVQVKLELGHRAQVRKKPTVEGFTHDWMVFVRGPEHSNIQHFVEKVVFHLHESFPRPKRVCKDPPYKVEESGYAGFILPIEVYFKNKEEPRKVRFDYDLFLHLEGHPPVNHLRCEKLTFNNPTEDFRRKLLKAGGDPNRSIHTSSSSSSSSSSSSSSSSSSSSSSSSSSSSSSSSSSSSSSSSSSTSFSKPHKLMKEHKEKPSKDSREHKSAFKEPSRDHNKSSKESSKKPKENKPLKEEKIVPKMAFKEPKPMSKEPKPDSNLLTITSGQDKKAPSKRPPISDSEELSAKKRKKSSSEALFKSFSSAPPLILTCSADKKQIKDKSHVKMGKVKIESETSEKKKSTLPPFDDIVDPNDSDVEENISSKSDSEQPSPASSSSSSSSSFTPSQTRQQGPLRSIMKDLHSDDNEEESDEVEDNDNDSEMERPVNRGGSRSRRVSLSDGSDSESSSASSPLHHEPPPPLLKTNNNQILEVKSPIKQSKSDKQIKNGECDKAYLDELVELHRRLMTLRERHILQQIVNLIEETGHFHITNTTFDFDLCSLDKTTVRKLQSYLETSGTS
rRNA inh HTS OD600 – further read-out of rRNA inh HTS, marked with its call; OD600 change, %; measured here: OD600 growth;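 optical density of the mix in the first replicate; 0 = DMSO median and -100 = no signal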
rRNA inh HTS RFP – second read-out of rRNA inh HTS, no call of its own (marks repeat the call); RFP signal change, %; measured here: RFP humanized mutant strains;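 first replicate; 0 = DMSO median and -100 = no signal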
* marks the source's active call; other numbers are inactive results; i = inactive; ? = inconclusive; . = no result given.

entry	structure	FGF22 binding	rRNA inh HTS OD600	rRNA inh HTS RFP	MLL AF4-AF9 inh	rRNA inh HTS
1	COCC#Cc1cnc2c(c1)C(=O)N([C@@H](C)CO)C[C@H](C)[C@@H](CN(C)C(=O)Nc1ccc(OC)cc1)O2	i	-1	-2.8	-0.2	2
2	CO[C@@H]1CN(C)C(=O)c2ccc(NC(=O)Nc3cc(F)ccc3F)cc2OC[C@@H](C)N(C(=O)c2cnccn2)C[C@H]1C	i	-7	2.8	2.3	3
3	COC(=O)[C@]12CCCCC=C1N(Cc1ccc3c(c1)OCO3)C(=O)[C@H](CC(=O)N1CCOCC1)C2	i	3	-0.1	-1.3	-5
4	COc1ccc(NC(=O)Nc2ccc3c(c2)[C@@H]2C[C@H](CC(=O)N(C)C)O[C@H](CO)[C@@H]2O3)cc1	i	8	0.5	-0.3	2
5	CC(=O)N(C)C[C@@H]1Oc2ncc(C#Cc3ccccc3)cc2C(=O)N([C@@H](C)CO)C[C@@H]1C	i	7	-5.1	-2.3	3
6	COc1ccc(S(=O)(=O)Nc2ccc3c(c2)C(=O)N([C@H](C)CO)C[C@@H](C)[C@H](CN(C)C(=O)Nc2ccc(F)cc2)O3)cc1	i	1	-4.1	0.6	4
7	C[C@@H]1CN([C@@H](C)CO)S(=O)(=O)c2ccc(C#C[C@@H](C)O)cc2O[C@H]1CN(C)Cc1cncnc1	i	-3	-0.8	-0.3	2
8	O=C(OCc1ccccc1)c1c(-c2ccccc2)oc2c1C(OCCO)CCC2 (centres undefined)	i	-37	10	-0.5	-10
9	C[C@@H]1CN([C@H](C)CO)C(=O)c2cccc(NC(=O)CCCCCC(=O)Nc3ccccc3N)c2O[C@@H]1CN(C)C(=O)Nc1ccc(F)cc1	i	-1	0.0	0.6	1
10	Cc1ccc(S(=O)(=O)Nc2ccc3c(c2)C(=O)N([C@H](C)CO)C[C@@H](C)[C@H](CN(C)C(=O)Nc2ccc(C(F)(F)F)cc2)O3)cc1	i	-2	0.5	-0.1	-4
11	O=C(C[C@H]1CC[C@@H]2[C@H](COC[C@@H](O)CN2C(=O)Nc2cccc(Cl)c2)O1)NCCCN1CCOCC1	i	-79	-14	-0.3	-57
12	CCCC#Cc1cnc2c(c1)C(=O)N([C@@H](C)CO)C[C@H](C)[C@@H](CN(C)C(=O)Cc1cccnc1)O2	i	5	0.0	-4.2	3
13	C[C@@H](NC(=O)C[C@@H]1CC[C@@H]2[C@@H](COc3ccc(NS(=O)(=O)c4ccc(Cl)cc4)cc3C(=O)N2C)O1)c1ccccc1	i	-12	-0.3	-0.7	0
14	O=C(NCCc1ccc(Cl)cc1)c1cc(S(=O)(=O)N2CCCC2)ccc1F	i	19	0.9	?	4
15	C/C=C/c1ccc([C@H]2[C@@H](CO)N(CC3CC3)[C@@H]2CNC(=O)c2ccccc2)cc1	i	-5	4.0	-5.3	-1
16	COc1ccc(S(=O)(=O)Nc2ccc3c(c2)CC(=O)N([C@@H](C)CO)C[C@@H](C)[C@H](CN(C)C(=O)Nc2ccc4c(c2)OCO4)O3)cc1	i	7	-0.6	1.4	1
17	COCC(=O)Nc1ccc2c(c1)[C@@H]1C[C@H](CC(=O)NCc3ccccn3)O[C@H](CO)[C@@H]1O2	i	0	-2.5	-19	2
18	COc1ccccc1S(=O)(=O)N1CC[C@@H]2[C@H](CO)Nc3ccc(-c4ccccc4)cc3[C@@H]21	i	-10	11	-0.3	-7
19	C[C@@H]1CN([C@@H](C)CO)S(=O)(=O)c2ccc(C#Cc3ccc(F)cc3)cc2O[C@H]1CN(C)C(=O)CN(C)C	i	-5	-0.5	12	-4
20	O=C(Cc1ccncc1)NCC[C@@H]1CC[C@H](NC(=O)Nc2cccc(F)c2)[C@@H](CO)O1	i	0	-1.2	0.3	2
21	O=C(C[C@@H]1CC[C@@H]2[C@H](COC[C@@H](O)CN2S(=O)(=O)c2ccccc2)O1)NCCN1CCCCC1	i	8	-2.8	0.0	4
22	COc1ccc(S(=O)(=O)N(C)C[C@@H]2Oc3c(NC(=O)C4CCOCC4)cccc3C(=O)N([C@H](C)CO)C[C@H]2C)cc1	i	4	-1.2	-2.7	4
23	O=C([C@H]1[C@H](CO)[C@H]2Cn3c(ccc(/C=C/c4ccccc4)c3=O)[C@@H]1N2)N1CCCCC1	i	-4	-0.3	-8.2	-1
24	O=C(c1ccc(F)cc1)N1C[C@H]2[C@@H](c3ccccc31)[C@H](CO)N2C(=O)c1ccc(F)cc1	i	7	1.8	-4.2	7
25	C[C@@H]1CN([C@@H](C)CO)C(=O)c2cc(C#Cc3ccccn3)cnc2O[C@H]1CN(C)Cc1cncnc1	i	4	-0.2	-2.2	-2
26	C[C@H](CO)N1C[C@H](C)[C@H](CN(C)S(=O)(=O)c2ccc(F)cc2)Oc2c(NS(=O)(=O)c3cccs3)cccc2C1=O	i	4	-1.0	0.7	-1
27	O=C(C[C@@H]1C[C@@H]2c3cc(NC(=O)NC4CCCC4)ccc3O[C@@H]2[C@H](CO)O1)NCc1ccccc1F	i	1	-0.1	-0.7	-1
28	CCC(=O)N1CCCCN2[C@H](CO)[C@H](c3ccc(-c4cccc(C(=O)N(C)C)c4)cc3)[C@H]2C1	i	1	-1.7	-6.1	3
29	COc1ccc(S(=O)(=O)Nc2ccc3c(c2)CC(=O)N([C@H](C)CO)C[C@@H](C)[C@@H](CN(C)S(=O)(=O)c2cccs2)O3)cc1	i	-10	-2.5	-0.2	-6
30	C[C@@H]1CN([C@H](C)CO)C(=O)c2cc(NC(=O)C3CCCCC3)ccc2O[C@@H]1CN(C)S(=O)(=O)c1ccccc1	i	-4	-2.6	-2.1	-1

5 entries already listed, ordered by molecular weight, largest number first:
entry	structure	FGF22 binding	rRNA inh HTS OD600	rRNA inh HTS RFP	MLL AF4-AF9 inh	rRNA inh HTS
26	C[C@H](CO)N1C[C@H](C)[C@H](CN(C)S(=O)(=O)c2ccc(F)cc2)Oc2c(NS(=O)(=O)c3cccs3)cccc2C1=O	i	4	-1.0	0.7	-1
22	COc1ccc(S(=O)(=O)N(C)C[C@@H]2Oc3c(NC(=O)C4CCOCC4)cccc3C(=O)N([C@H](C)CO)C[C@H]2C)cc1	i	4	-1.2	-2.7	4
27	O=C(C[C@@H]1C[C@@H]2c3cc(NC(=O)NC4CCCC4)ccc3O[C@@H]2[C@H](CO)O1)NCc1ccccc1F	i	1	-0.1	-0.7	-1
24	O=C(c1ccc(F)cc1)N1C[C@H]2[C@@H](c3ccccc31)[C@H](CO)N2C(=O)c1ccc(F)cc1	i	7	1.8	-4.2	7
23	O=C([C@H]1[C@H](CO)[C@H]2Cn3c(ccc(/C=C/c4ccccc4)c3=O)[C@@H]1N2)N1CCCCC1	i	-4	-0.3	-8.2	-1

Further entries follow:
entry	structure	FGF22 binding	rRNA inh HTS OD600	rRNA inh HTS RFP	MLL AF4-AF9 inh	rRNA inh HTS
31	COc1ccc(OC)c(NC(=O)CSc2ncnc3sc(C)cc23)c1	i	10	-3.0	-3.1	6
32	Cc1ccccc1S(=O)(=O)N1CCCCN2[C@H](C1)[C@@H](c1ccc(C#CCN(C)C)cc1)[C@@H]2CO	i	-12	0.8	-4.1	-5
33	Cc1cccc(-c2ccc([C@@H]3[C@@H](CO)N4CCCCN(S(=O)(=O)c5cn(C)cn5)C[C@@H]34)cc2)c1	i	-58	9.5	-1.1	-14
34	Cc1ccc2cc(NC(=O)C3(C)CCN(C)C3)ccc2n1 (centres undefined)	i	7	-3.5	-2.9	2
35	C[C@H](CO)N1C[C@H](C)[C@@H](CN(C)S(=O)(=O)c2cccs2)OCCCC[C@H](C)Oc2ccc(NS(=O)(=O)c3ccc(Cl)cc3)cc2C1=O	i	-1	-1.9	-0.7	-5
36	C[C@H]1CN([C@@H](C)CO)C(=O)c2cc(NC(=O)CCCN(C)C)ccc2O[C@H]1CN(C)C	i	4	1.7	-1.4	7
37	COc1ccc(-c2ccc3c(c2)[C@@H]2[C@@H](CCN2S(=O)(=O)c2ccc(F)cc2)[C@H](CO)N3C)cc1	i	10	3.6	4.5	1
38	CC(C)NC(=O)N1[C@H](CO)[C@H]2c3ccccc3N(C(=O)Nc3ccccc3)C[C@H]21	i	15	-0.6	2.1	0
39	C[C@@H]1CN([C@H](C)CO)C(=O)c2cc(C#CC3(O)CCCC3)cnc2O[C@H]1CN(C)C(=O)C1CCCCC1	i	-3	-2.0	-3.0	-3
40	COc1ccc(NC(=O)N(C)C[C@H]2Oc3c(NC(=O)Nc4ccccc4)cccc3C(=O)N([C@@H](C)CO)C[C@@H]2C)cc1	i	3	-2.0	-1.5	0
41	COc1ccc(-c2nc3ccc(C)cn3c2Cc2cccc(F)c2)cc1OC	i	-76	-21	4.1	-61
42	C[C@H](O)C#Cc1cnc2c(c1)C(=O)N([C@H](C)CO)C[C@H](C)[C@H](CN(C)Cc1ccccn1)O2	i	9	-3.6	-0.6	4
43	COc1ccccc1NC(=O)N1[C@@H](C#N)[C@H](c2ccccc2)[C@@H]1CO	i	6	-3.4	-1.7	2
44	CCCC(=O)Nc1ccc2c(c1)C(=O)N(C)C[C@H](OC)[C@@H](C)CN(C(=O)c1cnccn1)[C@@H](C)CO2	i	2	-0.4	1.6	1
45	C[C@H](CO)N1C[C@H](C)[C@H](CN(C)C(=O)Cc2ccncc2)Oc2cc(C#CC3CC3)ccc2S1(=O)=O	i	-6	-1.2	2.6	-2
46	CCC(=O)N(C)C[C@@H]1Oc2ncc(C#Cc3ccccc3OC)cc2C(=O)N([C@@H](C)CO)C[C@H]1C	i	4	-2.6	0.0	1
47	Cc1noc(C)c1NC(=O)N(C)C[C@@H]1OCCCC[C@H](C)Oc2ccc(NC(=O)NC(C)C)cc2C(=O)N([C@@H](C)CO)C[C@H]1C	i	4	-2.2	-2.5	3
48	CC(C)NC(=O)C1(C)CCN1C(=O)c1ccccc1 (centres undefined)	i	9	-0.6	1.4	9
49	CCC(=O)N1[C@H](CO)[C@H](c2ccccc2)C12CN(C(=O)Nc1cccc(OC)c1)C2	i	-2	6.8	3.3	1
50	CC(C)NC(=O)N(C)C[C@H]1Oc2c(NC(=O)c3ccncc3)cccc2C(=O)N([C@H](C)CO)C[C@@H]1C	i	6	-0.7	-2.1	2
51	N#C[C@@H]1[C@@H](c2ccc(-c3ccc(F)cc3)cc2)[C@@H](CO)N1C(=O)Cc1ccccc1	i	-45	14	-0.5	-11
52	C[C@H]1CN([C@@H](C)CO)C(=O)Cc2cc(NC(=O)Cc3cn(C)c4ccccc34)ccc2O[C@H]1CN(C)Cc1ccc2c(c1)OCO2	i	-10	6.9	0.3	-1
53	CCCNC(=O)N1[C@H](C#N)[C@H](c2ccccc2C2=CCCCC2)[C@@H]1CO	i	-52	-6.5	3.2	-22
54	C[C@@H]1CN([C@@H](C)CO)C(=O)c2cc(NC(=O)c3ccncc3)ccc2O[C@@H]1CN(C)S(=O)(=O)c1cn(C)cn1	i	12	-0.3	-1.4	3
55	C[C@@H]1CN([C@@H](C)CO)C(=O)c2cc(NC(=O)C3CCCCC3)ccc2O[C@H]1CN(C)S(=O)(=O)c1cn(C)cn1	i	1	-1.1	-4.3	0
56	COc1cccc(-c2ccc3n(c2=O)C[C@H]2N[C@@H]3[C@@H](C(=O)N3CCCCC3)[C@@H]2CO)c1	i	16	-0.5	2.3	1
57	CN(C)CC#Cc1ccc([C@@H]2[C@@H](CO)N3CCCCN(S(=O)(=O)c4ccccc4F)C[C@H]23)cc1	i	4	-0.2	-3.6	-1
58	CC(=O)N(C)C[C@@H]1OCc2ccccc2-c2ccccc2C(=O)N([C@@H](C)CO)C[C@H]1C	i	-1	-3.2	-3.0	-1
59	COc1cccc(NC(=O)N2C[C@@H](O)COC[C@H]3O[C@@H](CC(=O)NC4CCCC4)CC[C@@H]32)c1	i	5	-4.3	-3.3	0
60	CCCNC(=O)N(C)C[C@H]1Oc2ncc(-c3ccc(C(=O)N(C)C)cc3)cc2C(=O)N([C@H](C)CO)C[C@H]1C	i	11	-6.3	-3.1	3
61	O=C1CCCC2=C1[C@@]1(O[C@H]3C=CC=CN23)C(=O)N(c2ccccc2)c2ccccc21	.	24	2.9	-0.6	-1
62	CCCC(=O)Nc1ccc2c(c1)OC[C@@H](C)N(Cc1ccc(-c3ccccn3)cc1)C[C@H](C)[C@H](OC)CN(C)C2=O	i	-14	2.1	-1.8	-4
63	CN1C(=O)c2cc(NC(=O)c3ccc(F)cc3)ccc2OC[C@H]2O[C@@H](CC(=O)NC3CCC3)CC[C@H]21	i	-5	0.2	-1.2	-3
64	CN(C)CC(=O)N1[C@H](CO)[C@@H](c2ccc(C#CC3CCCC3)cc2)[C@@H]1C#N	i	0	1.9	1.3	0
65	COc1ccc(C(O)c2ncc(-c3cccc(C(F)(F)F)c3)[nH]2)cc1 (centres undefined)	i	-35	-4.9	-0.5	-3
66	C[C@@H]1CN([C@@H](C)CO)C(=O)c2cc(NC(=O)CCC(F)(F)F)ccc2O[C@@H]1CN(C)Cc1ccc(C(=O)O)cc1	i	6	-1.4	-5.1	-1

Screening results: PubChem BioAssay, Broad Institute

Not all compounds are listed; rates above refer to the full screens.
